High-throughput results deposited in PubChem BioAssay by several laboratories.
T cruzi inh: T. cruzi replication inhibition | inhibition, % (no concentration beside the values) | AID 1885 | T. cruzi beta-gal in NIH3T3, luminescence, 90 h | 1.4% of 300,000 active;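 active means mean inhibition across valid replicates above about 55%, limit read from the data; inconclusive means mean below that limit but half or more replicates reach it; inactive means mean below it, under half of replicates reach it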;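 further: signal also drops with host cell toxicity which is not excluded here; 0% = plate median of DMSO wells and 100% = zero luminescence signal; higher percent means less beta-gal luminescence so fewer parasites; stock transfer was 50 nL into about 50 µL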
Calb FLC: C. albicans growth modulation with fluconazole | C. albicans CaCi-2 (fluconazole-resistant clinical isolate) + fluconazole, Alamar Blue growth, 48 h | growth inhibition, % (test concentration not listed) | 0.57% of 300,000 active | AID 1979;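 active means most replicates above 75%; inconclusive means exactly half above 75%; inactive means most below 75%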;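 further: all wells also contain fluconazole at 8 µg/ml as a sub-toxic cotreatment; 0% = median of DMSO wells and 100% = median of geldanamycin control wells; wells of about 8 µL received 7.5 nL stock; the first replicate is given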
B2AR ag: agonists of human beta-2 adrenergic receptor inducing internalization | P07550 | Am2.2-beta2AR cells, FAP receptor internalization, flow cytometry; reference of the scale not given here | response, % (concentration not given with the values) | 0.43% of 340,000 active;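 active means response above a set limit, near 3 SD of response in nonfluorescent compounds, cut at about 42% in these data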;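 further: stock transfer was 100 nL into about 11 µL; a reference agonist was the positive control; negative values mostly stem from fluorescent compounds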
LANA-H2A inh: blocks KSHV LANA binding to histone H2A/H2B | Q9QR71 | cell-free LANA-H2A/H2B peptide, fluorescence polarization | inhibition, % (no concentration beside the values) | 0.6% of 320,000 active; in the data active means inhibition mostly above about 10%, no sharp cut-off; inactive means mostly below about 6.7%;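 further: stock transfer was 7.5 nL into about 10 µL; 0% = median of vehicle wells and 100% = median of positive control wells; one replicate is shown; the record names a cut of 25% in any replicate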
Target sequence (Q9QR71 whole entry, looked up): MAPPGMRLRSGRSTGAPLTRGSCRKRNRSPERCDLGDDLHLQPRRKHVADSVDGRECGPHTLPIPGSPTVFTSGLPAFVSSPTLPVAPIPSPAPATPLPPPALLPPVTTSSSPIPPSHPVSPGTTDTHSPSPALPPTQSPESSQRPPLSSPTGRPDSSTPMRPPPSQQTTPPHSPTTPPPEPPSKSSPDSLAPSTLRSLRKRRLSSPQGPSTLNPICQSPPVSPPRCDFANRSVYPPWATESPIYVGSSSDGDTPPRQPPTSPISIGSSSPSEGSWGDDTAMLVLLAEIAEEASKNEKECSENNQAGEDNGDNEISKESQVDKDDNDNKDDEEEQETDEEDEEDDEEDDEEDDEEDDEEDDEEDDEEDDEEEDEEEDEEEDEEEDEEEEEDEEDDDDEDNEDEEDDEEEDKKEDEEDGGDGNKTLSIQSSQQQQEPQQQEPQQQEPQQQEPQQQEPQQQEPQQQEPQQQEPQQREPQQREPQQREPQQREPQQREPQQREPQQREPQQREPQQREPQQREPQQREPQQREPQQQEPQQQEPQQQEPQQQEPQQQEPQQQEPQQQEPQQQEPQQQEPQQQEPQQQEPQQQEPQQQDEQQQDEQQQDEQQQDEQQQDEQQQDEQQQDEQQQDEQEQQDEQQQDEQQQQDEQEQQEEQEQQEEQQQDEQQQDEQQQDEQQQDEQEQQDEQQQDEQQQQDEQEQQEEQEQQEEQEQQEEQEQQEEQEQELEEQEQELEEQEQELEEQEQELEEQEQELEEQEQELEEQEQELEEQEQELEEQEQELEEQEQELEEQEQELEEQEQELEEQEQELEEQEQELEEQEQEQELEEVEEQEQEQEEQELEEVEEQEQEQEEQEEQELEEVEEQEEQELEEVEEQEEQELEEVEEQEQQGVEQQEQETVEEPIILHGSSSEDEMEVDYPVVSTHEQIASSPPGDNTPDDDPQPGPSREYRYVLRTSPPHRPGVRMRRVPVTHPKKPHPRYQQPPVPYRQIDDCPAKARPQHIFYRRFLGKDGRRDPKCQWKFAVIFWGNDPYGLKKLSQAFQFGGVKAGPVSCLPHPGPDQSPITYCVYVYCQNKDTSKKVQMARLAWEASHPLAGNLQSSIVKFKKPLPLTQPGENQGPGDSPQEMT
UCH37 inh: blocks the human deubiquitinase UCH37. Q9Y5K5. inhibition, % (concentration not given with the values). AID 588478. 0.33% of 330,000 active. purified proteasome/UCH37, Ub-AMC cleavage fluorescence;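 active means mean of two replicates above 20%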;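 further: 0% = compound-free wells with enzyme and 100% = wells lacking proteasome; stock transfer was 100 nL into about 20 µL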
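assay system = human UCH37 enzyme supplied as purified proteasome complex | amount = proteasome at 0.15 nM in the dispensed enzyme solution | schedule = 30 min compound-proteasome preincubation then 25 min substrate reaction, room temperature | measured by = fluorescence, ex 355 nm, em 460 nm | benchmarks = no-proteasome wells (full inhibition) and compound-free wells (no inhibition)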
Beta apoptosis: beta cell apoptosis inhibition; AID 435005; INS-1E cytokine-induced death, ATP luminescence, 48 h; percent of positive-control rescue, neutral wells zero; protection from apoptosis, % (test concentration not listed); 0.8% of 300,000 active;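 active means all replicates at 75% or more, or half of them and the mean; inconclusive means half reach 75% but not the mean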;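 further: 0% = cytokine-treated negative control wells and 100% = positive control rescue; higher means more ATP so stronger rescue from cytokine killing; wells of about 40 µL received 100 nL stock; the first replicate is given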
RanGTP-Imp inh: disruptors of Ran-importin-beta complex formation – biochemical, FRET, CFP-Ran, YFP-importin-beta, homogeneous, primary screen | cell-free CFP-Ran/YFP-importin-beta FRET ratio | inhibition, % (test concentration not listed) | 1.1% of 300,000 active | AID 2216;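 active means most replicates above 15%; inconclusive means exactly half above 15%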;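 further: 0% = DMSO wells and 100% = Ran loaded with GDP instead of GTP; wells of about 40 µL received 100 nL stock; the first replicate is given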
Bfl-1 A1 inh: inhibitors of the anti-apoptotic protein A1, read as caspase activation | MEF A1-2A-BIM cells, Caspase-Glo 3/7 luminescence, 3 h; percent of clofoctol response, vehicle zero | caspase activation, % (concentration not given with the values) | 0.066% of 330,000 active;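 active means over half of replicate activation scores above 10%, or exactly half above 10 with the replicate mean above 10; inconclusive means replicate mean below 10 yet half the replicates above 10; inactive means over half of replicates below 10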;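 further: wells of about 30 µL received 50 nL stock; many hits fall short of the cut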
Active calls of the source: *; u = inconclusive; x = no result given; & = joins results of further samples.

SMILES	T cruzi inh	Calb FLC	B2AR ag	LANA-H2A inh	UCH37 inh	Beta apoptosis	RanGTP-Imp inh	Bfl-1 A1 inh
CCOc1ccc(N(CC(=O)Nc2ccccc2OC)S(C)(=O)=O)cc1	1	-2	-7	1.1	4.3	-2	-1.0	2.0
C=CCNC(=O)c1cc(-c2ccc(Br)cc2)on1	6	-44	-1	-0.5	0.8	-3	2.9	-2.9
CCOC(=O)C1(Cc2cccc(OC)c2)CCCN(S(=O)(=O)N(C)C)C1 (stereo not given)	-4	-4	8	-1.9	3.7	-7	-2.9	0.0
CCOC(=O)c1c(NC(=O)c2ccc(S(=O)(=O)N3CCOCC3)cc2)sc2c1CCN(C)C2	x	-26	0	-11	1.7	-3	7.1	-0.2
O=C1c2cccc3cccc(c23)C(=O)N1/N=C/c1ccc(O)cc1O	-1	59	-4	0.0	x	3	4.1	1.4
CC(C)(C)NC(=O)NCC1CCCC1NC(=O)NC(C)(C)C (stereo not given)	-7	-7	-3	-2.8	1.0	-7	2.0	-0.3
CC1CCCC(NC(=O)COC(=O)c2c[nH]c(=O)[nH]c2=O)C1C (stereo not given)	x	x	8	3.9	3.3	5	x	0.6
COc1ccccc1NC(=O)Cn1cnc2sc(C)c(S(=O)(=O)N3CCCCC3)c2c1=O	-11	1	7	-0.5	1.8	-12	0.3	-0.4
COc1cccc(NC(=O)CCN2CCOCC2)c1	-5	-7	2	-2.6	6.2	-1	0.4	0.5
COc1ccc(S(=O)(=O)N2CCCCCC2)cc1C(=O)N1CCCC(C(F)(F)F)C1 (stereo not given)	8	4	-2	8.6	5.6	-2	-4.6	0.1
CCCCn1nc(C(=O)Nc2ccc(-n3cnnn3)cc2)c2ccccc2c1=O	x	x	14	-1.0	-8.3	2	x	-0.4
COc1ccc(CCNC(=O)C(=O)NCC2CCCN2S(=O)(=O)c2cccs2)cc1 (stereo not given)	1	2	-4	-7.8	1.1	-1	4.1	1.1
COC(=O)c1cccc(Nc2nc3ccccc3nc2C)c1	2	14	-2	4.0	-5.2	8	-5.5	-0.4
O=C(N/N=C/c1cccc([N+](=O)[O-])c1)c1ccc(Br)cc1	5	-10	-4	1.5	x	12	3.2	-0.6
CCCN(c1ccc(OCC)cc1)c1ncnc2nc[nH]c12	12	0	10	-0.9	4.9	-3	-4.2	-0.5
COc1cc(OC)c(S(=O)(=O)N2CCN(C(=O)c3ccco3)CC2)cc1NC(C)=O	-13	7	-3	3.0	4.5	-4	-4.0	0.0
O=C(CSc1nnnn1C1CCCCC1)NCc1ccc2c(c1)OCO2	-5	7	-3	-3.3	2.8	-2	-3.9	-0.3
Cc1ccc2c(c1)C(=O)C(=O)N2Cc1ccc(Cl)cc1	x	x	13	5.9	-3.1	-3	x	u
CCOc1ccc(-c2onc(C(F)(F)F)c2-c2cscn2)c(O)c1	-3	37	1	-2.4	0.0	1	4.5	-0.4
Cn1cccc1/C=C(/C#N)C(N)=S	-3	-1	-8	x	-15	-5	-0.7	0.5
COC(=O)c1ccccc1NC(=O)C12CCC(C)(C(=O)O1)C2(C)C (stereo not given)	16	5	0	-11	-0.4	-5	3.1	0.1
Cc1cc(C(=O)NC2CCCC2)on1	-17	-4	3	-7.5	5.1	-5	-1.2	-0.9
CN(C)S(=O)(=O)c1ccc(C(=O)NCCSc2ccccc2)cc1	15	-11	-1	-3.0	-0.8	0	2.7	0.9
CCOC1Cc2ccccc2N(C(N)=O)c2ccccc21 (stereo not given)	-1	21	0	-14	-0.6	x	0.9	0.5

Random excerpt: 2 entries already listed.
SMILES	T cruzi inh	Calb FLC	B2AR ag	LANA-H2A inh	UCH37 inh	Beta apoptosis	RanGTP-Imp inh	Bfl-1 A1 inh
CC(C)(C)NC(=O)NCC1CCCC1NC(=O)NC(C)(C)C (stereo not given)	-7	-7	-3	-2.8	1.0	-7	2.0	-0.3
CCOC(=O)c1c(NC(=O)c2ccc(S(=O)(=O)N3CCOCC3)cc2)sc2c1CCN(C)C2	x	-26	0	-11	1.7	-3	7.1	-0.2

Next section
SMILES	T cruzi inh	Calb FLC	B2AR ag	LANA-H2A inh	UCH37 inh	Beta apoptosis	RanGTP-Imp inh	Bfl-1 A1 inh
O=C(Nc1c2c(nn1-c1ccc(F)cc1)CS(=O)(=O)C2)c1ccc(Br)o1	-10	37	0	8.4	4.3	1	5.8	-0.4
COCCCNc1nc(N)c([N+](=O)[O-])c(NC2CCCCC2)n1	-8	12	-7	-4.7	3.9	-2	-0.8	-0.9
Clc1ccc(-n2ncc3c(NCc4cccs4)ncnc32)cc1	-2	22	0	-3.2	1.1	x	-2.4	0.0
N#CCN=C(c1ccccc1)c1ccccc1	x	x	-3	0.8	-1.1	2	x	0.4
CCCCCn1c(SCCC(C)C)nc2c1c(=O)[nH]c(=O)n2C	19	-4	3	x	7.4	12	1.5	-0.3
CC12CCC(C[N+](C)(C)C1)C2(C)C (stereo not given)	-17	-5	3	-4.4	-3.2	-14	2.4	0.7
CCOc1cc(C(=O)Nc2cccc(OCC(=O)N3CCOCC3)c2)cc(OCC)c1OCC	9	4	8	-12	4.1	-5	5.0	1.3
CCc1nnc(NC(=O)c2ccc(Cl)c(S(=O)(=O)N3CCc4ccccc43)c2)s1	x	-28	-7	-2.5	2.7	-4	-3.6	0.4
CSCC[C@H](NC(=O)c1ccc2ccccc2c1)C(=O)N1CCC2(CC1)NCCc1[nH]cnc12	0	1	5	-0.6	-0.8	-2	-1.4	-0.7
COCCN(C(=O)c1ccc(N2CCCC2=O)cc1)c1c(N)n(Cc2ccccc2)c(=O)[nH]c1=O	x	x	33	-2.8	1.4	-6	x	0.0
COc1cc2c(cc1OC)C1(CCCC1)C(N)=C2C#N	x	10	13	1.5	5.6	x	x	-0.7
CCOC(=O)N1CCc2c(sc(NC(=O)Cc3ccccc3)c2C(=O)c2ccc(OC)cc2)C1	18	4	-2	11	0.6	-2	-5.7	0.5
CCCCN1C(C)=CC(=C2C(=O)c3ccccc3C2=O)C=C1C	16	-12	-18	-6.0	8.1	-1	-1.6	0.7
O=C(N/N=C/c1ccncc1)C12CC3CC(CC(C3)C1)C2	-8	17	-2	0.2	x	-4	-4.3	1.7
CCn1c(SCC(=O)NCCc2ccccc2)nnc1-c1cccs1	-1	3	-6	-0.6	1.3	-5	-0.6	0.6
COC(=O)c1cc(NC(=O)Nc2cccc(Cl)c2)ccc1Cl	42	u	0	2.4	2.4	56	-0.2	-0.8
CCCC(=O)NC(c1ccc(Cl)cc1Cl)c1ccc2cccnc2c1O (stereo not given)	64*	-2	2	0.0	x	94*	-3.1	-0.4
N#Cc1ccc(OCCOCCNC2CCCC2)cc1	67*	-2	-1	3.6	-5.6	-5	x	0.6
CCc1ccccc1NC(=O)/C(C#N)=C\c1ccc(Sc2ccccc2)o1	15	x	25	0.9	3.8	0	16*	-1.0
O=C(Cc1ccc(F)cc1)N1CCN(c2ccc([N+](=O)[O-])cc2)CC1	-9	0	10	1.2	12	6	-4.0	-2.8
CCCCN(C)C(=O)CC(NS(=O)(=O)c1ccc(NC(C)=O)cc1)C(C)C (stereo not given)	1	-3	-5	1.8	-0.6	1	-3.7	-0.2
COc1ccc(S(=O)(=O)NCC2CCC(C(=O)N3CCC4(CC3)OCCO4)CC2)cc1 (stereo not given)	-2	-10	-1	x	3.2	x	0.4	x
CCOC(=O)c1c(N)sn(-c2ccccc2)c1=S	5	0	-2	-2.5	1.2	-1	-1.0	-0.1
CCCn1c(SCC(N)=O)nnc1-c1ccco1	-8	3	5	-6.4	0.1	0	2.8	0.0
CC(=O)c1ccc(-n2c(C)c(C(C)=O)c3cc(O)ccc32)cc1	1	-4	-7	2.2	4.0	-18	2.2	0.0
O=C(O)CCC(=O)NCCn1c(-c2ccccc2)csc1=Nc1ccccc1	-18	-5	-4&0	1.7	1.2&4.6	-6	-1.5	-0.1
COc1ccc(C(C)=O)cc1COc1cc(C)c(Cl)c(C)c1	0	-5	5	2.4	3.8	-8	-2.0	1.2
CS(=O)(=O)N1CCC(C(=O)Nc2cccc(C(F)(F)F)c2)CC1	-10	0	-4	-6.2	-0.7	-1	-4.4	-0.1
O/N=C\c1cccn1-c1ccc(Br)cc1	7	-14	3	-0.6	x	-8	-0.7	0.0
O=C(N/N=C/c1ccncc1)c1ccccc1OCc1ccc(Br)cc1	71*	12	-6	0.4	x	8	1.7	-0.5
CC(C)(C)c1cc(C(=O)N/N=C/c2ccccc2O)n(-c2ccccc2)n1	31	-10	9	1.2	x	85*	0.1	-2.5
Nc1nc(SCC(=O)Nc2ccc(Cl)cn2)n[nH]1	-10	-16	-2	-9.0	1.6	-5	1.9	0.0
Cn1c(=O)cc2c3c(c(N4CCCCC4)ccc31)C(=O)c1ccccc1-2	12	-4	-6	22*	8.3	5	-9.8	-0.5
CCOC(=O)c1c(-c2ccccc2)nc2ccc(Cl)cn12	11	-5	-15	4.3	0.4	x	-2.7	0.2
N#CCCN(C(=O)COC(=O)COc1ccc(Cl)cc1)c1ccccc1	-1	2	-18	3.1	-0.2	-3	0.0	-0.4
CCC(C)NC(=O)CN1c2cccc3cccc(c23)S1(=O)=O (stereo not given)	3	6	6	2.0	-104	x	-2.0	1.7
Cc1cccc(C)c1N(CC(=O)Nc1cc(Cl)ccc1Oc1ccccc1)S(C)(=O)=O	36	-1	1	4.1	1.9	-3	-0.6	-0.2
CC(=O)Nc1ccc(OCC=C(Cl)Cl)cc1	-14	6	-14	-1.4	3.0	x	3.0	0.0
Cc1ccc(-n2cccc2/C=C2/C(=N)N3C(=NC2=O)SN=C3S(C)(=O)=O)cc1	-4	-4	1	-9.2	-3.1	1	u	0.5
CC(=O)Nc1ccccc1-c1nc2ccccc2nc1OCC(=O)c1ccc(Br)cc1	-2	-15	1	3.6	4.7	0	u	-1.0
CCCCOc1ccc(OCCNS(=O)(=O)N(C)C)cc1	30	4	-9	0.2	1.1	x	-3.8	-0.1
CCOC(=O)c1sc(=S)n(C)c1NC(=O)c1ccc(F)cc1	-15	-39	2	4.5	6.2	5	2.4	-0.2
Cc1cccc(Cl)c1NC(=O)N1CCCN(c2nc3ccc(Cl)cc3s2)CC1	12	-1	-1	-3.9	2.1	4	1.2	-0.4
CCOC(=O)c1ccc2c(c1)n(CCO)c(C)[n+]2CC	-12	22	-3	0.0	4.1	1	-3.0	-0.9

Entries of single compounds, quoted from the list:
CC(=O)Nc1ccccc1-c1nc2ccccc2nc1OCC(=O)c1ccc(Br)cc1 is entered as T cruzi inh = -2; Calb FLC = -15; B2AR ag = 1; LANA-H2A inh = 3.6; UCH37 inh = 4.7; Beta apoptosis = 0; RanGTP-Imp inh = u; Bfl-1 A1 inh = -1.0
Cc1cccc(C)c1N(CC(=O)Nc1cc(Cl)ccc1Oc1ccccc1)S(C)(=O)=O is entered as T cruzi inh = 36; Calb FLC = -1; B2AR ag = 1; LANA-H2A inh = 4.1; UCH37 inh = 1.9; Beta apoptosis = -3; RanGTP-Imp inh = -0.6; Bfl-1 A1 inh = -0.2
